High-throughput results deposited in PubChem BioAssay by National Center for Advancing Translational Sciences (NCATS).
Rango complex inh: qHTS Assay for Inhibitors of Rango (Ran-regulated importin-beta cargo) - Importin beta complex formation; Importin subunit beta-1 (Homo sapiens), Q14974; Rango CFP/YFP FRET sensor + importin beta, 45 min; Potency, µM (series often up to 92.2 µM), inactives show top-dose inhibition of complex formation; hit rate 0.031% among 340,000; AID 540263, 2011; active = rising FRET ratio curve, often small or poorly fitted; inconclusive = mostly compound fluorescence or quenching in the first reads; inactive = flat curves in all reads;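 also: potency is read from the fitted curve at half-maximal effect; 0% = DMSO wells and 100% = buffer wells lacking importin beta; nearly all actives have a fitted effect of over 15% in size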
Target sequence (Q14974 whole entry, looked up): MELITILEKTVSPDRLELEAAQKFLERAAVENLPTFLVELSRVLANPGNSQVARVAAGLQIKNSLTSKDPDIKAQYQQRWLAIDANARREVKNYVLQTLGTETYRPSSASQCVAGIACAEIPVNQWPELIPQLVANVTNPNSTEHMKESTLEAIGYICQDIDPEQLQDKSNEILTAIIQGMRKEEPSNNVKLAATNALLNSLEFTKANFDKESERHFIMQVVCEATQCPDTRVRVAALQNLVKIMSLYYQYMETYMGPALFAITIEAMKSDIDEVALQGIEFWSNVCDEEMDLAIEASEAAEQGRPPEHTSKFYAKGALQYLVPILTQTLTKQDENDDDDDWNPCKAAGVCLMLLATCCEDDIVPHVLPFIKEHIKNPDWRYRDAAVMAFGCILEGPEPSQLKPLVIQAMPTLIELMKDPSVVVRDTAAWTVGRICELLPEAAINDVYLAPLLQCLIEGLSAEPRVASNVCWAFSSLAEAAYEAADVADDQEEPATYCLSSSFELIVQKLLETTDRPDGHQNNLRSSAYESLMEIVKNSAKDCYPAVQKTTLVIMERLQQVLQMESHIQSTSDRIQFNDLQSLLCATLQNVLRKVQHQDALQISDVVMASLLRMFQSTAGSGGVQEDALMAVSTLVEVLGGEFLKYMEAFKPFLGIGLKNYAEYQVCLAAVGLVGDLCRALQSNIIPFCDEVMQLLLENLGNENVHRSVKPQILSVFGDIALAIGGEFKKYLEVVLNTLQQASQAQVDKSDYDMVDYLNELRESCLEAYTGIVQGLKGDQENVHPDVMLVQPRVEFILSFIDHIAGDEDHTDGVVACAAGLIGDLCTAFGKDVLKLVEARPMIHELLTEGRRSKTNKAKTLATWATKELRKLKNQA
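FRET biosensor Rango (snurportin 1 IBB between N-terminal EYFP and C-terminal Cerulean), 50 nM in PBS/1 mM DTT/0.02% Tween-20/0.1% BSA, preincubated 5 min RT with compound; 0.125 microM importin beta added, 45 min RT, CFP/YFP FRET ratio read.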
GLA inh pH 4.5: qHTS Assay for Inhibitors of Human alpha-Galactosidase at pH 4.5. Alpha-galactosidase A (Homo sapiens), P06280. purified enzyme, 4-MU-alpha-Gal fluorescence, pH 4.5. activity change, negative = inhibition, % at 105 µM. 230,000 tested, under 10 active; inconclusive = small, poorly fitted or top-dose-only inhibition, or a rising curve; inactive = flat fitted curve, though single readings scatter; no compound was filed as active;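 also: 0% = full activity with enzyme and -100% = basal without enzyme; dose as in the result columns while the protocol names 77 µM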
miR-21 reporter: qHTS Assay for Modulators of miRNAs and/orActivators of miR-21 | HeLa miR-21 FLuc reporter, luciferase, 48 h | Potency, µM (series often up to 38.3 µM), inactives show at the top dose reporter change, positive = more light | 340,000 tested, under 10 active | AID 2288, 2010; active = well fitted rising curve with a large enough effect; inconclusive = small, poorly fitted or top-dose-only effect; inactive = no such curve, though single readings can be large or run the other way;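 also: % of control where 0% means no effect; miR-21 action dims this reporter so a rising signal means less miR-21 action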
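HeLa miR-21-FLuc reporter line, endogenous miR-21; 2000 cells/well in DMEM/10% FBS; compound titration up to ~40uM final, 48 h, 37 degree Celsius; luciferase detection reagent, 15 min lysis, CCD luminescence.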
Rango release inh: qHTS Assay for Inhibitors of RanGTP induced Rango (Ran-regulated importin-beta cargo) - Importin beta complex dissociation. hit rate 0.071% among 340,000. AID 540253, 2011. Biochemical FRET Rango-importin beta, RanGTP-induced dissociation. Snurportin-1 (Homo sapiens) + GTP-binding nuclear protein Ran (Homo sapiens) + Importin …. Potency, µM (series often up to 46.1 µM), for the others: top-dose activity change, negative = inhibition; active means falling FRET ratio curve, often poorly fitted, with flat reads before Ran was added; inconclusive means other falling curves, or compound fluorescence or quenching; inactive means flat or rising ratio curve;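 also: potency is read from the fitted curve at half-maximal effect; % of control where 0% means no effect; nearly all actives have a fitted effect of over 45% in size; -100% = wells without RanGTP and RCC1; the record marks most hits as doubtful in a second field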
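Two FRET readings bracket the reaction: one 5 min after compound meets Rango–importin beta, another 45 min after RanGTP-RCC1 (0.6 uM Ran, 0.2 uM RCC1, 2 mM GTP) is added. Only the second defines inhibition.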
* marks the source's active call; other numbers are inactive results; ? = inconclusive; . = no result given; & = joins results of further samples; [ ] = dose if it differs, or a comment. This is a subset, so the mix of outcomes need not match the whole.

Order of values – Rango complex inh, GLA inh pH 4.5, miR-21 reporter, Rango release inh
- O=C(CCCSc1nc2ccccc2s1)NCc1ccc2c(c1)OCO2
    -1.7%, 6, -3%, -13%
- O=C(CCCc1ccccn1)c1cccc2ccccc12
    3.0%, ., ., -8%
- Cc1ccc(NC(=O)C2CCCN(S(=O)(=O)c3c(C)noc3C)C2)cc1F (centres undefined)
    -0.5%, -8, 5%, -3%
- Cc1csc(=O)n1CC(=O)OCc1cccc2ccccc12
    1.5%, -1, -44%, -4%
- CC(C)c1cc(CNC(=O)CC2C(=O)NCCN2CC2CCCCC2)on1 (centres undefined)
    -0.1%, -13, -1%, -4%
- CC(C)c1ccc(NC(=O)COC(=O)COc2ccccc2)cc1
    -1.0%, -1, -10%, 6%
- COc1ccc(/C=N/NC(=O)c2ccc3nc[nH]c3c2)c(OC)c1
    2.4%, ., 0%, -4%
- O=C(NCC1COc2ccccc2O1)c1ccc(Cl)c(S(=O)(=O)N2CCCC2)c1 (centres undefined)
    -1.6%, ., ., -1%
- COc1ccc(/C=N/NC(=O)C(=O)N2CCCCCC2)cc1
    0.7%, ., -2%, 1%
- Cc1ccc(CC(=O)OCCNC(=O)c2cccnc2)cc1
    -3.6%, -4, 0%, 0%
- CCC(C)(C)C1CCc2c(sc(NC(=O)c3ccoc3C)c2C(N)=O)C1 (centres undefined)
    -4.0%, 1, 1%, -2%
- CC1(C)CC2CC(C)(CN2S(=O)(=O)c2cccc(C(N)=O)c2)C1 (centres undefined)
    -0.3%, ., ., 15%
- CCc1ccc(-c2cc(C(=O)N/N=C/c3ccco3)[nH]n2)cc1
    0.5%, 4, -28%, -8%
- COc1ccc(C2N(C(C)=O)CCN2S(=O)(=O)c2ccc(C)cc2)cc1 (centres undefined)
    -0.3%, ., 0%, 3%
- CCCC/S(CC1CC1(Cl)Cl)=N\S(=O)(=O)c1ccc(C)cc1 (centres undefined)
    -0.7%, 1, 2%, 1%
- COc1ccccc1NC(=O)C1=C(C)N(c2ccccc2)C(=S)NC1c1cccc(C(F)(F)F)c1 (centres undefined)
    -3.9%, -21, 21%, 9%
- Cc1ccc(S(=O)(=O)N2CCC(NC(=O)c3cccnc3)CC2)cc1Cl
    -0.7%, ., 0%, -11%
- O=C1/C(=C/c2cccs2)CCC1C1CCCC1 (centres undefined)
    6.1%, -6, -27%, -15%
- O=C(c1ccccc1)N1CCN(S(=O)(=O)c2cccc(NS(=O)(=O)c3ccccc3)c2)CC1
    3.8%, 1, 0%, 1%
- COc1ccc(C(=O)O/N=C(\N)c2ccccn2)cc1[N+](=O)[O-]
    -0.1%, ., -42%, 9%

Among those listed so far, 5 contain a halogen:
Order of values – Rango complex inh, GLA inh pH 4.5, miR-21 reporter, Rango release inh
- Cc1ccc(NC(=O)C2CCCN(S(=O)(=O)c3c(C)noc3C)C2)cc1F (centres undefined)
    -0.5%, -8, 5%, -3%
- O=C(NCC1COc2ccccc2O1)c1ccc(Cl)c(S(=O)(=O)N2CCCC2)c1 (centres undefined)
    -1.6%, ., ., -1%
- CCCC/S(CC1CC1(Cl)Cl)=N\S(=O)(=O)c1ccc(C)cc1 (centres undefined)
    -0.7%, 1, 2%, 1%
- COc1ccccc1NC(=O)C1=C(C)N(c2ccccc2)C(=S)NC1c1cccc(C(F)(F)F)c1 (centres undefined)
    -3.9%, -21, 21%, 9%
- Cc1ccc(S(=O)(=O)N2CCC(NC(=O)c3cccnc3)CC2)cc1Cl
    -0.7%, ., 0%, -11%

Next part.
Order of values – Rango complex inh, GLA inh pH 4.5, miR-21 reporter, Rango release inh
- CCOC(=O)C(=O)Nc1ccccc1C(N)=O
    -1.1%, -2, 0%, -6%
- Cc1cccnc1NC(=O)c1cccc(S(=O)(=O)N2CCCc3ccccc32)c1
    2.1%, ., 0%, 7%
- CCOC(=O)N1CCC(N2Cc3cccc(C(=O)NCc4ccc(OC)cc4)c3C2=O)CC1
    ., 1, -1%, .
- S=C(NNc1nc(Nc2ccccc2)nc(N2CCCCC2)n1)NC1CCCCC1
    -2.0%, -2, 12%, 5%
- C=CCn1c(SCC2CCCCO2)nc2sc(CC)cc2c1=O (centres undefined)
    0.0%, 2, -4%, -6%
- CCCCc1nc2ccccc2c(=O)n1NC(=O)c1c(O)c2cccc3c2n(c1=O)CCC3
    ., -6, -6%, .
- CCOC(=O)CNS(=O)(=O)c1ccc(C(=O)O)cc1
    0.7%, -3, -1%, 1%
- COc1cc(NC(=O)N[C@H](C(=O)O)C(C)C)cc(OC)c1
    -0.8%, 4, -1%, 15%
- CCC(C)NS(=O)(=O)c1ccc(OCC(=O)Nc2ccc3c(c2)OCCO3)cc1 (centres undefined)
    -1.2%, -22, 0%, 1%
- Cn1c(CN2CCCCC2)nc2cc(NC(=O)c3cccc(Br)c3)ccc21
    -4.5%, -8, 19%&11%, 8%
- Cc1ccc(C(=O)OCC(=O)N2CCCCCC2)c(O)c1
    3.3%, ., ., 5%
- Cc1cc(NS(=O)(=O)c2ccc(NC(=S)NC(=O)c3ccc(F)cc3Cl)cc2)no1
    -4.1%, 6, -9%, 18%
- Cc1cccc(N(CC(=O)Nc2ccc(CC#N)cc2)S(C)(=O)=O)c1
    4.0%, 0, -7%, 9%
- Cc1ccc(O)c(CNc2nccs2)c1
    1.2%, ., -14%, 0%
- O=C(NCCCn1ccnc1)c1c(F)cccc1F
    -0.2%, ., -6%, -2%
- CC(C)N(C(=O)[C@H]1CC(CC(=O)NCc2ccco2)C(=O)N2CCc3c([nH]c4ccccc34)[C@]12C)C(C)C (some centres undefined)
    -1.4%, ., ., -8%
- C[C@H](NC(=O)c1ccco1)C(=O)OCC(=O)N1CC(=O)Nc2ccccc21
    0.7%, ., ., -11%
- Cc1ccc(C)c(NC(=O)c2ccccc2C(=O)c2ccccc2)c1
    ., -3, 5%, .
- CCCCn1c(N)c(N(CCOC)C(=O)c2ccc(F)c(S(=O)(=O)N3CCOCC3)c2)c(=O)[nH]c1=O
    -3.8%, ., ., 10%
- COC(=O)[C@@]12CCCCN1[C@H](c1ccc(-c3cccc(Cl)c3)c(OC)c1)[C@H]1C(=O)N(C)C(=O)[C@H]12
    -3.9%, ., ., -7%
- CCc1ccc2c(CC(=O)Nc3nnc(C4CC4)s3)coc2c1
    -0.6%, 3, -21%, -3%
- O=C(NCc1nc2ccccc2[nH]1)C1=C[C@H](c2ccc(C(F)(F)F)cc2)C[C@H](OCc2ccc(CO)cc2)O1
    1.0%, -4, 19%, -17%
- COc1cccc(NC(=O)CCc2ccccc2)c1
    7.1%, ., ., -1%
- CC(C)CNC(=S)N(CCCO)Cc1cc2cc3c(cc2[nH]c1=O)OCO3
    2.6%, ., -6%, -3%
- COc1ccc(C(=O)N2CCN(c3ccc(NC(=O)c4cccs4)cc3)CC2)cc1
    0.0%, ., 2%, -3%
- CCOc1cc(C(=O)OCC(=O)NC(C)c2ccccc2)ccc1OCC(=O)N1CCOCC1 (centres undefined)
    -1.7%, 4, 5%, -1%
- CCCN(CCC)CCCNC(=O)c1cc2cc3ccc(Cl)cc3nc2o1
    0.0%, ., -9%, -7%
- Cc1nccn1CCCN1C(=O)OC2(CCCCC2)C1(C)O (centres undefined)
    -1.9%, -3, -5%, 44%
- Cn1nnc(NC(=O)c2ccc([N+](=O)[O-])cc2Cl)n1
    0.1%, 6, 7%, -4%
- CC(=O)Oc1ccc2nc(-c3ccco3)oc(=O)c2c1
    -1.0%, ., -1%, 3%
- Cc1c(-c2ccccc2)c(=O)oc2cc(O)ccc12
    ?, ., -20%, ?
- c1ccc(-c2nnc(CSc3nncs3)o2)cc1
    4.6%, -3, -37%, 19%
- CCOc1ccccc1N(CC)C(=O)c1nn(C)c2c1CSc1ccccc1-2
    3.5%, ., 13%, 31%
- CC(C)(C)c1ccc(NC(=O)C2=CN3CCS(=O)(=O)N=C3C=C2)cc1
    0.7%, ., ., -9%
- CC1=CC(C)(C)Nc2ccc(C)cc21
    3.5%, -2, -1%, 0%
- CC(=O)c1ccc(OC(=O)N(c2ccccc2)c2ccccc2)cc1
    -7.4%, -4, -3%, 1%
- CCOC(=O)N1CCC(NC(=O)c2ccc3c(c2)N(Cc2ccc(F)cc2)CCS3)CC1
    4.9%, 26, -5%, 2%
- CC(=O)Nc1ccc(NC(=O)Nc2cc(C)cc(C)c2)cc1
    4.5%, -2, -11%, -5%
- CCn1c(SCC(=O)N2CCCc3ccccc32)nc2cccnc21
    2.9%, -2, -2%, -6%
- Cc1sc2ncnc(NCC3(N4CCOCC4)CCCCC3)c2c1C
    0.6%, 12, -7%, 1%
- CCCc1nnc(NC(=O)CCC(=O)Nc2ccc(F)cc2)s1
    -2.1%, -1, 1%, -6%
- O=C(C1CCCO1)N1CCN(C(=S)Nc2ccc(Cl)cc2Cl)CC1 (centres undefined)
    -3.3%, -4, -5%, -2%
- O=C(COC(=O)c1ccc(F)cc1F)Nc1cc(S(=O)(=O)N2CCOCC2)ccc1Cl
    -1.2%, ., ., 0%
- O=C(c1ccccc1)N(CCO)Cc1cc2cc3c(cc2[nH]c1=O)OCCO3
    3.5%, 11, -2%, -3%
- CC1CCCC(NC(=O)CN2CCN(Cc3ccc(Cl)cc3)C2=O)C1C (centres undefined)
    2.6%, 5, 13%, -7%
- O=C(/C(=C/c1ccccc1Cl)c1ccccc1)N1CCOCC1
    4.7%, -14, -5%, 1%
- CCOC(=O)c1cc2cc([N+](=O)[O-])cc(OC)c2oc1=O
    2.6%, -3, 0%, 8%
- CCOc1ccc(S(=O)(=O)N(C)c2ccc(OCC(=O)Nc3nc4ccccc4s3)cc2)cc1
    -4.3%, -8, 27%, -6%
- CSc1cccc(CN2CCCC(C(=O)Nc3cccc(-n4cccn4)c3)C2)c1 (centres undefined)
    0.6%, ., -2%, 1%
- Cc1ccc(C23CC4CC(CC(C(=O)N(C)C)(C4)C2)C3)cc1
    0.2%, ., 4%, -13%

(further entries)
Order of values – Rango complex inh, GLA inh pH 4.5, miR-21 reporter, Rango release inh
- COc1ccc(NC(=O)NNC(=O)COc2ccc([N+](=O)[O-])c(C)c2)cc1OC
    0.0%, ., 4%, -14%
- Cc1c(CCC(=O)NCCCCCC(=O)O)c(=O)oc2c(C)c3oc4c(c3cc12)CCCC4
    0.6%, ., -3%, 4%
- Cc1cccc2cccnc12
    -1.6%, ., ., 0%
- COc1ccccc1/C=C/C=N/NC(=O)c1cc(-c2ccco2)[nH]n1
    0.0%, 1, 2%, 28%
- COc1cccc(C(=O)NCC(=O)OC(C)C(=O)NC23CC4CC(CC(C4)C2)C3)c1 (centres undefined)
    -0.2%, ., ., 1%
- CC1CCN(S(=O)(=O)c2ccc3c(c2)CCN3C(=O)C2CCC2)CC1
    -0.2%, ., -1%, -12%
- CCOc1ccccc1N(CC(=O)N1CCC(C)CC1)S(=O)(=O)c1ccc(C)cc1
    -0.4%, ., -3%, 6%
- C=C(C)CNC(=O)c1ccc(OC2CCN(C(=O)COC)CC2)cc1
    -0.7%, ., ., 6%
- CCCN(c1ccccc1F)S(=O)(=O)c1c[nH]c(C(=O)OC)c1
    -6.2%, ., 1%, 19%
- COCCSc1nnc(-c2cnccn2)o1
    0.1%, 7, -9%, 2%
- COc1ccccc1NC(=O)Cn1c(CCC(=O)O)ccc1-c1ccccc1
    -0.3%, -4[21.1 µM], -4%, 14%
- CCN1CCN(Cc2nc3cc(NC(=O)COc4ccc([N+](=O)[O-])cc4)ccc3n2C)CC1
    -2.4%, ., 2%, -16%
- O=C1c2[nH]nc(-c3ccccc3O)c2C(c2ccc(F)cc2)N1Cc1ccco1 (centres undefined)
    -8.7%, -10, 11%, 3%
- CCOc1ccccc1N1CCN(C(=O)Cc2ccc(S(=O)(=O)N3CCOCC3)s2)CC1
    0.7%, ., ., 3%
- Cc1cc(C)[n+](Cc2ccccc2)cc1C(N)=O
    -0.8%, ., ., -2%
